# Assay outcomes as filed in PubChem BioAssay.
# TRPML1 ag: activates the human TRPML1 channel. hit rate 0.12% among 410,000. TRPML1-expressing cells, Ca2+ dye fluorescence, FDSS; host cell line not named in the record; reference of the full effect not given here. activation, % (concentration not given with the values); in the data active = activation above about 50%; inconclusive = about 30% to 50%; inactive = below about 30%; also: 0% is about no effect; the text of the record puts the active cut at 80%
#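 In this qHTS format, compounds were pin-transferred onto Ca8-dye-loaded TRPML1-DL cells induced with Tet overnight, and intracellular Ca2+ fluorescence was recorded kinetically for 110 s after a 10 s baseline. A subsequent 4uM final 54-4 (EC80) addition followed by a second 110 s read served as the antagonist phase.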
# CtBP-E1A blk: CtBP/E1A binding inhibition. AlphaScreen GST-E1A/His-CtBP binding, 1536-well; active compounds read low; control for the full effect not named in the record. activity change, % (no concentration beside the values). hit rate 0.49% among 340,000. AID 651724; in the data active means activity change below about -65%; inconclusive means about -30% to -65%; inactive means above about -30%; also: % is scaled to controls: 0 for no effect and ±100 for the full control effect
#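 In 5 uL wells, 23 nL compound meets equimolar GST-E1A and His-CtBP (5X stock 125 nM each) for 2 h, 37 °C. Beads (5X, 50 ug/mL) then 1 h, 37 °C, dark.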
# D2 potentiator: positive allosteric modulators of human D2 dopamine receptor | AID 624464 | P14416 | potentiation, % (no concentration beside the values) | hit rate 0.23% among 360,000 | DiscoveRx D2 beta-arrestin cells, luminescence, 90 min; 100% = 57 uM dopamine signal; active = potentiation of 50% or more; inconclusive = 30% to 50%; inactive = 30% or less;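 also: compound concentration not given in the record; tested on top of an EC20 dose of dopamine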
#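 PathHunter beta-arrestin assay in DiscoveRx D2 cells. Compounds were added with an EC20 of dopamine (50 nM final) for 90 min at 37 deg C. Luminescence was read 1 h after detection reagent, with 57 uM dopamine as the EC100 control.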
# TRPV1 PAM: potentiators of human vanilloid receptor 1 (TRPV1); TRPV1-expressing cells, Fluo-8 calcium influx, capsaicin EC20 potentiation; host cell line not named in the record; control for the full effect not named in the record; hit rate 0.02% among 320,000; potentiation, % at 8.33 µM; active means potentiation above 80%; inconclusive means 30% to 80%; inactive means below 30%; also: 0% is about no effect
# Target sequence (Q8NER1 whole entry, looked up): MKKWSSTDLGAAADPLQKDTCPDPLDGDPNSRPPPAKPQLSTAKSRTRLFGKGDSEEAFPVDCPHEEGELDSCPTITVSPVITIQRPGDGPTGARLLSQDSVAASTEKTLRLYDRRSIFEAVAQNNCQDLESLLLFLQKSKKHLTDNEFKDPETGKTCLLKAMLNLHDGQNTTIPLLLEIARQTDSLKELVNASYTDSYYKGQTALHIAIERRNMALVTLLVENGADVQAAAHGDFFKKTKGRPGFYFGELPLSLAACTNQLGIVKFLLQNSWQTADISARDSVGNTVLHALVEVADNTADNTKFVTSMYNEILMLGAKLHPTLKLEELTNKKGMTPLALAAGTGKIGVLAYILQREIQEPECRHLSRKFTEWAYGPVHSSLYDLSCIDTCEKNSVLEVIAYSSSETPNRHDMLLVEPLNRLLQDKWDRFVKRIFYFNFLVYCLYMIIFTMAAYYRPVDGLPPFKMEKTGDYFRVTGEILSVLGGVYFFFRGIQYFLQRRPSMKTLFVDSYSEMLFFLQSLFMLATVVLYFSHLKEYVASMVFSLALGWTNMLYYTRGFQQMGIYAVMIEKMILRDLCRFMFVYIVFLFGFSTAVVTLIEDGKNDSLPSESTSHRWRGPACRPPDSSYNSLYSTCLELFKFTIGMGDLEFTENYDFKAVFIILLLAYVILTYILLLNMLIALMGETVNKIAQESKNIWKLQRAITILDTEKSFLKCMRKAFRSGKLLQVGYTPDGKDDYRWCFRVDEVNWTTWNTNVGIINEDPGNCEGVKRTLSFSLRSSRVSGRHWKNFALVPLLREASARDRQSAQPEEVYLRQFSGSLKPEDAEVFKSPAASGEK
#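 Cells expressing TRPV1 were dye-loaded with Fluo-8 and read kinetically: 10 s baseline, 3 min after compound (agonist portion), then 2 min after EC20 capsaicin (allosteric enhancer portion). Calcium-bound dye fluorescence at 480/520 nm.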
# TRPML1 inh: inhibitors of human TRPML1 channel | hit rate 0.02% among 390,000 | Q9GZU1 | TRPML1-inducible cells, Ca2+ dye fluorescence, FDSS; active compounds read low; inhibition of EC80 agonist-evoked calcium signal | activity change, negative = inhibition, % (concentration not given with the values); in the data active means activity change below about -50%; inconclusive means about -30% to -50%; inactive means above about -30%;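 also: stimulus is agonist 54-4 at its EC80 concentration; % is scaled to controls: 0 for no effect and ±100 for the full control effect; the text of the record puts the active cut at -80%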
#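 Calcium fluorescence in TRPML1-DL cells induced overnight with Tet: a 110 s read after compound pin addition, then a 110 s antagonist read after challenge with 54-4 at 4 uM final (EC80).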
# Six1-Eya2 blk: blocks human Six1 binding to Eya2. activity change, % (no concentration beside the values). AID 651725. hit rate 0.56% among 360,000. AlphaScreen GST-Six1/His-Eya2 binding, biochemical; active compounds read low; control for the full effect not named in the record. Q15475+O00167; in the data active = activity change below about -65%; inconclusive = about -30% to -65%; inactive = above about -30%; also: % is scaled to controls: 0 for no effect and ±100 for the full control effect
#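 Six1/Eya2 binding was read as AlphaScreen signal after compounds were pinned into GST-Six1 plus His-tagged Eya2 (5X stock 250/500 nM) in pH 8.0 Tris/NaCl/TCEP buffer, beads added, then incubated 1 h, 37 C, dark.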
# Numbers without * were called inactive; ? = inconclusive; . = no result given; & = joins results of further samples.
SMILES,TRPML1 ag,CtBP-E1A blk,D2 potentiator,TRPV1 PAM,TRPML1 inh,Six1-Eya2 blk
Cc1oc2cc(O)ccc2c(=O)c1-c1cnn(-c2ccccc2)c1,1.7,-11,1,6,40,-11
O=C(Nc1ccc2c(c1)OCCO2)C1CCN(S(=O)(=O)c2ccc(Br)s2)CC1,1.0,-1,-21,4,-8,-9
O=C(COc1coc(CN2CCN(c3cccc(Cl)c3)CC2)cc1=O)NC1CCCC1,0.5,-9,-20,7,0,4
O=C(NCc1ccco1)C1CCCN1S(=O)(=O)c1ccccc1C(F)(F)F (stereo unspecified),1.8,22,-4,7,-9,17
CCC(CO)NCC(O)COCc1ccc2c(c1)OCO2 (stereo unspecified),0.4,.,-1,1,-6,-2
Cc1ccc(S(=O)(=O)N(C)C)cc1NC(=O)COC(=O)c1c(-c2ccccc2)noc1C,2.5,-5,-37,11,-11,0
CCOC(=O)c1ccc(NC(=S)N2CCCC(C(=O)OCC)C2)cc1 (stereo unspecified),-0.8,2,-4,-18,-4,0
O=C(c1cc(COc2ccc(F)cc2F)on1)N1CCCC(c2ccccc2)C1 (stereo unspecified),16,25,-4,-7,7,25
C[C@H](CO)N1C[C@H](C)[C@@H](CN(C)C(=O)Cc2ccccc2)OCc2cnnn2CCCC1=O,0.8,-2,-4,.,15,9
O=C(/C=C/c1ccccc1)NCCOc1ccccc1,2.8,2,-1,-10,0,8
N#C/C(=C(/O)c1ccc([N+](=O)[O-])s1)c1nc2ccccc2[nH]1,-0.3,2,9,10,10,6
Cc1cc(C(F)(F)F)nc(SCCN2CCOCC2)c1C#N,1.3,3,-7,9,-13,6
CSc1ccc(OC2CCCCC2NS(=O)(=O)c2ccc(Cl)cc2)cc1 (stereo unspecified),-0.5,3,-1,5,9,-9
NC(=O)C[n+]1cccc(CNC(=O)c2ccc(OC(F)F)cc2)c1,0.0,-6,1,-5,-7,0
CCCS(=O)(=O)NC(=O)C1(C)CCN(C(=O)COCc2ccccc2)C1 (stereo unspecified),-0.5,0,4,.,.,7
O=C(Nc1ccc(Br)cc1Br)c1cccc2c1C(=O)N(C1CCCCC1)C2,0.1,8,-1,10,35,0
Cc1nc(NC(=O)COc2ccccc2)sc1C(=O)Nc1ccccc1,-0.6,2,2,-14,-7,-2
C[C@@H]1CN([C@@H](C)CO)C(=O)CCCn2nncc2CO[C@H]1CN(C)Cc1ccccc1C(F)(F)F,-0.5,4,-5,.,8,7
O=[N+]([O-])c1cccc(NC(=S)Nc2nc(-c3ccccc3Cl)cs2)c1,2.6,-9,-35,2,6,-3
COC1(C2=NCCN2)COc2ccccc2O1 (stereo unspecified),0.0,-1,-6,-4,-5,2
O=C(Nc1ccc2c(c1)CCC2)Nc1ccccc1Cl,0.6,1,-13,-2,-7,2
COc1ccc(NC(=S)N2CCN(S(C)(=O)=O)CC2)cc1,0.5,6,-4,0,-7,10
O=C1c2ccccc2COc2ccc(O)cc21,-0.8,-4,-8,-9,8,-8
C1CC1Cc1noc(CN2CCN(C3C4CC5CC(C4)CC3C5)CC2)n1 (stereo unspecified),0.4,-1,-3,-16,14,8
Cc1cccc(N2CCc3c2nc2ccc(Br)cc2c3N)c1,1.5,0,-24,6,15,0
CCc1sc(C(=O)Nc2cccc(C(C)=O)c2)cc1C,1.9,?,-20,-19,29,1
Cc1ccc(NC(=O)C2CCCN(S(=O)(=O)c3ccc4[nH]c(=O)ccc4c3)C2)nc1 (stereo unspecified),-0.7,2,-7,5,2,-4
CCOC(=O)c1c(NC(=O)COC(=O)c2cc(OC)c(OC)cc2[N+](=O)[O-])sc(C)c1C,0.2,2,-10,-8,10,3
OC(c1cc(F)cc(Cl)c1)c1ncc(-c2ccc3ccccc3c2)[nH]1 (stereo unspecified),2.3,-25,-1,.,.,?
CC1Cc2nc(SCC(=O)c3ccccc3)n(Cc3ccccc3)c(=O)c2S1 (stereo unspecified),1.3,-27,-12,1,-1,-11
COc1cc(-c2nc3cnccn3c2Nc2ccc3c(c2)OCCO3)ccc1O,0.4,-7,8,20,-4,-9
C=CCN1C(=O)C(CC(=O)Nc2ccccc2F)S/C1=N\c1nccs1 (stereo unspecified),-0.2,-2,3,-14,7,-3
COC(=O)c1cn(NC(=O)c2cc(OC)cc(OC)c2)c(=O)c2ccccc12,5.1,0,-18,16,3,0
COc1ccc(Cc2nnc(NC(=O)c3ccccc3Cl)s2)cc1OC,0.2,-1,3,17,-3,-3
CCCCc1c(O)nc(SCC(=O)N2CCOCC2)n(-c2ccc(C)cc2)c1=O,-0.2,2,-3,.,-3,4
COCCN(C(=O)COC(=O)C1(C)CC1(Cl)Cl)c1c(N)n(Cc2ccccc2)c(=O)[nH]c1=O (stereo unspecified),0.0,17,-21,?,3,1
COc1cccc(C(=O)Nc2nnc(S(=O)(=O)N3CCCC3)s2)c1,-0.6&2.1,-10,-1,14,-6&10,-8
CCOC(=O)C1=NNC2C(=O)N(CC)C(=O)C12 (stereo unspecified),-0.2,2,-7,5,0,3
CN(c1ccccc1)c1cc(=O)[nH]c(=O)[nH]1,0.4,-1,-6,5,6,-6
O=C(Nc1cccc2ccccc12)NC1CC1,0.2,-7,-14,.,6,1
N#C/C(=C\c1cn(Cc2cccc(F)c2)c2ccccc12)C(=O)NCc1ccco1,4.3,-5,-8,9,18,2
C/C=C/C1=CC(=O)C[C@H](c2ccc(Cl)cc2)C1,-0.4,3,2,-16,5,-3
O=S(=O)(Nc1nc2ccccc2[nH]1)c1ccc2ccccc2c1,0.4,2,-6,-7,26,3
COc1ccc(S(=O)(=O)CCC(=O)NCCc2ccc(S(N)(=O)=O)cc2)cc1,-0.5,4,3,-7,44,12
O=[N+]([O-])c1ccccc1CNc1ccc(F)c(Cl)c1,0.3,-18,?,10,-5,-24

# As a short view, 21 of the compounds above:
SMILES,TRPML1 ag,CtBP-E1A blk,D2 potentiator,TRPV1 PAM,TRPML1 inh,Six1-Eya2 blk
Cc1cccc(N2CCc3c2nc2ccc(Br)cc2c3N)c1,1.5,0,-24,6,15,0
CCc1sc(C(=O)Nc2cccc(C(C)=O)c2)cc1C,1.9,?,-20,-19,29,1
Cc1ccc(NC(=O)C2CCCN(S(=O)(=O)c3ccc4[nH]c(=O)ccc4c3)C2)nc1 (stereo unspecified),-0.7,2,-7,5,2,-4
CCOC(=O)c1c(NC(=O)COC(=O)c2cc(OC)c(OC)cc2[N+](=O)[O-])sc(C)c1C,0.2,2,-10,-8,10,3
OC(c1cc(F)cc(Cl)c1)c1ncc(-c2ccc3ccccc3c2)[nH]1 (stereo unspecified),2.3,-25,-1,.,.,?
CC1Cc2nc(SCC(=O)c3ccccc3)n(Cc3ccccc3)c(=O)c2S1 (stereo unspecified),1.3,-27,-12,1,-1,-11
COc1cc(-c2nc3cnccn3c2Nc2ccc3c(c2)OCCO3)ccc1O,0.4,-7,8,20,-4,-9
C=CCN1C(=O)C(CC(=O)Nc2ccccc2F)S/C1=N\c1nccs1 (stereo unspecified),-0.2,-2,3,-14,7,-3
COC(=O)c1cn(NC(=O)c2cc(OC)cc(OC)c2)c(=O)c2ccccc12,5.1,0,-18,16,3,0
COc1ccc(Cc2nnc(NC(=O)c3ccccc3Cl)s2)cc1OC,0.2,-1,3,17,-3,-3
CCCCc1c(O)nc(SCC(=O)N2CCOCC2)n(-c2ccc(C)cc2)c1=O,-0.2,2,-3,.,-3,4
COCCN(C(=O)COC(=O)C1(C)CC1(Cl)Cl)c1c(N)n(Cc2ccccc2)c(=O)[nH]c1=O (stereo unspecified),0.0,17,-21,?,3,1
COc1cccc(C(=O)Nc2nnc(S(=O)(=O)N3CCCC3)s2)c1,-0.6&2.1,-10,-1,14,-6&10,-8
CCOC(=O)C1=NNC2C(=O)N(CC)C(=O)C12 (stereo unspecified),-0.2,2,-7,5,0,3
CN(c1ccccc1)c1cc(=O)[nH]c(=O)[nH]1,0.4,-1,-6,5,6,-6
O=C(Nc1cccc2ccccc12)NC1CC1,0.2,-7,-14,.,6,1
N#C/C(=C\c1cn(Cc2cccc(F)c2)c2ccccc12)C(=O)NCc1ccco1,4.3,-5,-8,9,18,2
C/C=C/C1=CC(=O)C[C@H](c2ccc(Cl)cc2)C1,-0.4,3,2,-16,5,-3
O=S(=O)(Nc1nc2ccccc2[nH]1)c1ccc2ccccc2c1,0.4,2,-6,-7,26,3
COc1ccc(S(=O)(=O)CCC(=O)NCCc2ccc(S(N)(=O)=O)cc2)cc1,-0.5,4,3,-7,44,12
O=[N+]([O-])c1ccccc1CNc1ccc(F)c(Cl)c1,0.3,-18,?,10,-5,-24

# Going on with the list:
SMILES,TRPML1 ag,CtBP-E1A blk,D2 potentiator,TRPV1 PAM,TRPML1 inh,Six1-Eya2 blk
O=P(C1=C(N2CCOCC2)/C(=C\c2ccccc2)CC1)(N1CCOCC1)N1CCOCC1,-0.4,6,-15,21,-4,2
O=C(Nc1nc(-c2nc3ccccc3s2)cs1)C1COc2ccccc2O1 (stereo unspecified),1.3,-2,-1,-2,14,-14
CC1=C(C(=O)N2CCCCCC2)CC(CC(=O)NCc2ccco2)C(=O)N1Cc1ccccc1 (stereo unspecified),-0.2,5,-3,.,1,1
C[C@H](CO)N1C[C@H](C)[C@@H](CN(C)Cc2ccccc2)Oc2ccc(NC(=O)CCCCCC(=O)Nc3ccccc3N)cc2C1=O,-0.3,-1,-5,.,18,-5
COCCCNCc1cc(C)n(-c2cc(S(=O)(=O)N3CCOCC3)ccc2N2CCCC2)c1C,-0.3,.,-18,.,5,-5
Cc1ccc(O)c(NC(=O)c2ccc3c(c2)C(=O)N(Cc2cccnc2)C3=O)c1,-0.4,-8,16,2,-2,11
CC(=O)c1ccc(NC(=O)Cn2c3ccccc3c3nc(=O)cc(C)n32)cc1,.,0,7,6,.,-1
COc1ccccc1CNC(=O)[C@@H](NC(=O)C1CCN(C(=O)[C@@H]2CCCN2)CC1)C(C)C,.,6,-4,-1,.,7
COC(=O)C1C(=O)OC(C)(C)C1C(C)C(=O)c1ccc(C)cc1C (stereo unspecified),-0.2,-12,-15,-10,13,17
CCCCCCn1c(COc2ccccc2F)nnc1SCC(=O)N1c2ccccc2NC(=O)C1(C)C,1.4,-5,-12,-13,16,-8
Clc1ccc2oc(-c3ccccn3)nc2c1,-0.9,-1,4,-8,-6,1
CC(C)(C)NC(=O)NC(=O)COc1ccccc1C#N,1.3,2,-11,-17,27,-5
COc1cccc(-n2c(SCC(=O)Nc3cc(C)on3)nc3c([nH]c4ccccc43)c2=O)c1,-0.4,-6,4,17,29,-11
COc1cccc(NC(=O)c2ncn[nH]2)c1,-0.5,-3,2,-11,1,8
CCSC(SCC)[C@H](O)[C@@H](O)[C@H](O)[C@H](O)CO,-0.7,1,-2,-8,-13,3
